GIRK2 act: activators of human GIRK2 potassium channels | 0.05% of 63,000 active | HEK293-GIRK2 thallium flux, Thallos fluorescence | AID 1259325 | calls only for hits at 25 µM;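 active = among the strongest 0.2% of first-round signals and kept after retests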;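 note: first round at about 10 µM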
Target sequence (P48051 whole entry, looked up): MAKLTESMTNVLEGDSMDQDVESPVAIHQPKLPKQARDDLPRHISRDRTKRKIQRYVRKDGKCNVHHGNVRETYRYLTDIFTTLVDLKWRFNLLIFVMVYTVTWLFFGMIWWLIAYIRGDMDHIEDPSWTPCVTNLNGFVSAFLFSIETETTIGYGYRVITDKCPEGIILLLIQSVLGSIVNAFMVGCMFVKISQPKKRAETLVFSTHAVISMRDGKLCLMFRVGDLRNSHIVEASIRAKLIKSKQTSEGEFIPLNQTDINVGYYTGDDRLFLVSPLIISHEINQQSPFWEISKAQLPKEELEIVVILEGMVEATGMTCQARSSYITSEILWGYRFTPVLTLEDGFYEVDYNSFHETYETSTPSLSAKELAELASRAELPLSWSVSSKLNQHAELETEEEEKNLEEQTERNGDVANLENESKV
Calls only; i = inactive.

SMILES	GIRK2 act
COc1ccc(-c2ccc(N3CCCC(C(=O)N4CCN(C)CC4)C3)nn2)cc1 (centres undefined)	i
COc1ccc(CCn2c(N3CCC(C)CC3)nc3c2c(=O)[nH]c(=O)n3C)cc1	i
c1cncc(-c2nnc3sc(-c4cc5ccccc5o4)nn23)c1	i
Cc1cc(C(=O)Nc2nc3c(s2)CN(C(=O)Nc2c(F)cccc2F)CC3)no1	i
O=C(NCCC(O)c1cccs1)C(=O)Nc1cccc(N2CCCC2=O)c1 (centres undefined)	i
CCn1ncc(C(CC(=O)c2ccccc2)CC(=O)c2ccccc2)c1C	i
COc1ccc(-c2ccc(=O)n(CCNS(=O)(=O)c3ccc(OC)c(C)c3)n2)cc1	i
CC(Cc1ccco1)NC(=O)C(=O)Nc1ccc(OC(F)(F)F)cc1 (centres undefined)	i
CC(C)COc1ccc(S(=O)(=O)NCC(C)(O)c2ccco2)cc1 (centres undefined)	i
O=C(NCC1CCN(C(=O)c2ccoc2)CC1)C1CC=CCC1 (centres undefined)	i
CC(C)NC(=O)CSc1nnc(N2CCN(C(=O)CC(C)(C)C)CC2)s1	i
O=C(Cn1c(=O)oc2ccccc21)N1CCC(CSC2=NCCS2)CC1	i
O=C(NCC1CCCO1)c1nnn(-c2ccc(F)cc2)c1-c1ccncc1 (centres undefined)	i
Cc1ccc(S(=O)(=O)c2c(C)cc(C)n(CC(=O)NCc3ccc4c(c3)OCO4)c2=O)cc1	i
Cc1ccc(Cl)cc1N1CCN(C(=O)c2csc(C(=O)NC3CC3)n2)CC1	i
COc1cc(OC)cc(N(C)S(=O)(=O)c2ccsc2C(=O)n2nc(C)cc2C)c1	i
CCNC(=O)C(=O)NCC1OCCCN1S(=O)(=O)c1ccc(OC)cc1 (centres undefined)	i
O=C(NCCO)c1nnn(-c2ccc(Br)cc2)n1	i
CCOC(=O)c1cc(-c2ccc(I)cc2)n(-c2ccc(S(N)(=O)=O)cc2)n1	i
Cc1ccc(CC2S/C(=C(/C#N)C(=O)N3CCCCC3)N(c3ccccc3)C2=O)cc1Cl (centres undefined)	i
O=C(/C=C/c1cccs1)N1CCCSCC1CN1CCCC1 (centres undefined)	i
O=C(Cn1c(=O)oc2ccccc21)N1CCC(Oc2cnccn2)CC1	i
O=C(Nc1nccs1)C1CCN(C(=O)c2cc(-c3ccco3)[nH]n2)CC1	i
CCCN1CCCC[C@H]1C(=O)Nc1c(C)cccc1C	i
O=C(c1ccc(OC(F)(F)F)cc1)N1CC(c2nc(C3CC3)no2)C1	i

16 entries out of the list, arranged by SMILES length, rising.
SMILES	GIRK2 act
O=C(NCCO)c1nnn(-c2ccc(Br)cc2)n1	i
CCCN1CCCC[C@H]1C(=O)Nc1c(C)cccc1C	i
O=C(/C=C/c1cccs1)N1CCCSCC1CN1CCCC1 (centres undefined)	i
O=C(NCC1CCN(C(=O)c2ccoc2)CC1)C1CC=CCC1 (centres undefined)	i
c1cncc(-c2nnc3sc(-c4cc5ccccc5o4)nn23)c1	i
CC(C)COc1ccc(S(=O)(=O)NCC(C)(O)c2ccco2)cc1 (centres undefined)	i
O=C(Cn1c(=O)oc2ccccc21)N1CCC(CSC2=NCCS2)CC1	i
CCNC(=O)C(=O)NCC1OCCCN1S(=O)(=O)c1ccc(OC)cc1 (centres undefined)	i
CC(C)NC(=O)CSc1nnc(N2CCN(C(=O)CC(C)(C)C)CC2)s1	i
O=C(Nc1nccs1)C1CCN(C(=O)c2cc(-c3ccco3)[nH]n2)CC1	i
COc1ccc(-c2ccc(N3CCCC(C(=O)N4CCN(C)CC4)C3)nn2)cc1 (centres undefined)	i
Cc1cc(C(=O)Nc2nc3c(s2)CN(C(=O)Nc2c(F)cccc2F)CC3)no1	i
CCOC(=O)c1cc(-c2ccc(I)cc2)n(-c2ccc(S(N)(=O)=O)cc2)n1	i
COc1ccc(-c2ccc(=O)n(CCNS(=O)(=O)c3ccc(OC)c(C)c3)n2)cc1	i
Cc1ccc(CC2S/C(=C(/C#N)C(=O)N3CCCCC3)N(c3ccccc3)C2=O)cc1Cl (centres undefined)	i
Cc1ccc(S(=O)(=O)c2c(C)cc(C)n(CC(=O)NCc3ccc4c(c3)OCO4)c2=O)cc1	i

(further entries)
SMILES	GIRK2 act
CSc1ccccc1NC(=O)C(=O)NCC(c1ccccc1Cl)N(C)C (centres undefined)	i
O=C(c1ccc(OC(F)(F)F)cc1)N1CCN(CCn2cccn2)CC1	i
Cc1nc(-c2ccccc2F)sc1CNC(=O)CC1CSc2nc(C)c(C)c(=O)n21 (centres undefined)	i
Cc1ccc(NC(=O)N2CCN(c3ccc(Nc4ccncc4)nn3)CC2)cc1	i
O=C(NCCCS(=O)(=O)N1CCc2ccccc2C1)c1cc2ccccc2o1	i
NC(=O)CN1CCN(c2ccc(Cl)cc2)CC1	i
O=C(CCCCl)Oc1ccc2cc(-c3nc4ccccc4o3)c(=O)oc2c1	i
Cc1ccc(N2CCN(S(=O)(=O)c3cc(Br)c(C)cc3C)CC2)c(C)c1	i
C/C=C/CC(C)CC(C)C(O)=C1C(=O)NC(C(O)c2ccc(O)cc2)C1=O (centres undefined)	i
Cc1ccc2c(c1)N(c1ccc(Cl)c(C(F)(F)F)c1)C=C(C#N)S2(=O)=O	i
COc1cccc(OCC(=O)Nc2nc(-c3ccncc3)cs2)c1	i
COc1ccc(NC(=O)C(=O)Nc2ccc3c(c2)N(S(=O)(=O)c2ccc(C)cc2)CCC3)cc1	i
COC(=O)C1=C(CS(=O)(=O)c2ccc(Cl)cc2)NC(=O)NC1c1ccc(OC)c(OC)c1 (centres undefined)	i
CCn1c(SCc2nc(-c3cc(Br)ccc3OC)oc2C)nc2ccccc2c1=O	i
Cc1ccc(Cn2nc3n(CC(C)C)c(=O)c4ccc(C(=O)NC(C)C)cc4n3c2=O)cc1	i
COc1ccc(CCNC(=O)Cc2csc(Nc3ccccn3)n2)cc1OC	i
CCN(CC)CCN1C(=O)c2oc3ccccc3c(=O)c2C1c1cccc(OC)c1OC (centres undefined)	i
Cc1nc(N2C(=O)C(O)=C(C(=O)c3cccs3)C2c2ccc(F)cc2)sc1C (centres undefined)	i
Cc1ccc(S(=O)(=O)NCC2(c3cccs3)CCOCC2)cc1	i
O=C(CCSc1ccccc1)N1CC(c2nc3ccccc3[nH]2)C1	i
Cc1c(C(=O)O)nnn1-c1ccc(Br)cc1Cl	i
Cc1ccc(S(=O)(=O)c2nc(-c3ccccc3)oc2S(=O)(=O)CC(=O)N2CCCC2)cc1	i
CN(Cc1ccccc1)C(=O)C(=O)c1cn(CC(=O)N2CCOCC2)c2ccccc12	i
O=C(NCCOc1ccc(-c2ccc(F)cc2)nn1)c1ccc(S(=O)(=O)N2CCCC2)cc1	i
O=C(NCCc1ccccc1)N1CCC(c2nnc(-c3ccoc3)o2)CC1	i

Next section
SMILES	GIRK2 act
COc1ccc(Cl)cc1NS(=O)(=O)N1CCOCC1	i
O=C(CSc1nnc(N2CCN(c3ccccc3)CC2)s1)N1CCc2ccccc21	i
CNS(=O)(=O)c1ccc(C(=O)N2CCN(c3ccccc3OC)CC2)o1	i
COc1ccccc1OCC(=O)NCC(O)c1ccc2c(c1)CCO2 (centres undefined)	i
C=C1C2(C=CC(=O)OC2(C)C)CC(O)C2(C)C13OC14C(=O)OC(C)(C(=C)C12C(=O)OC4C)C3OC(C)=O (centres undefined)	i
COCC(=O)NC1CC(=O)N(C2CC2)C1 (centres undefined)	i
CN(C)C(CNC(=O)c1nc2ccccc2s1)c1ccc2c(c1)CCO2 (centres undefined)	i
CC(=O)c1ccc(N2CCN(C(=O)CCc3nc4sc5c(c4c(=O)[nH]3)CCCCC5)CC2)cc1	i
C=Cc1ccc(CN2N=C(C(=O)N3CCOCC3)S(=O)(=O)c3ccc(C)cc32)cc1	i
CN1CCN(Nc2nc3c(c(=O)[nH]c(=O)n3C)n2Cc2ccc(F)cc2)CC1	i
CCOC(=O)NCCC(O)C1CC1 (centres undefined)	i
Cc1cc(C(=O)NCCN2CCN(C(=O)c3ccsc3)CC2)no1	i
CN(C)c1ncc(NC(=O)Nc2ccccc2Cl)cn1	i
O=C1C(Cc2ccc(F)cc2)SC2=NCCCN12 (centres undefined)	i
CCCCN1CC(c2nc3ccccc3n2C/C=C/c2ccccc2)CC1=O (centres undefined)	i
Cc1cc(NC(=O)c2cccc3[nH]ccc23)ccc1Br	i
COc1ccc(CC(=O)N2CCN(c3ccc(-c4ccc(C)cc4)nn3)CC2)cc1	i
C#CC(C)(CC)OCC(O)CN1CCN(C(c2ccccc2)c2ccccc2)CC1 (centres undefined)	i
COc1ccccc1C(=O)NCC1CCN(Cc2cccs2)CC1	i
Cc1cc(C)n(-c2cc(SCC(=O)Nc3ccc(C#N)cc3)ncn2)n1	i
C=C(C)CN1CCn2c1nc1c2c(=O)n(CC(=C)C)c(=O)n1C	i
CCOc1ccc(/C=C/C(=O)Nc2c(C)cc(C)cc2Cl)cc1OC	i
O=C(Cn1c(=O)oc2ccccc21)NCC1(c2ccc(F)cc2)CC1	i
CCCCc1ccc(-n2nnc(C(=O)Nc3ccccc3F)c2C)cc1	i
Cc1ccc(S(=O)(=O)NCC(c2cn(C)c3ccccc23)N(C)C)s1 (centres undefined)	i

Some of the entries so far, in CSV form:
canonical_smiles,GIRK2 act
CC(=O)c1ccc(N2CCN(C(=O)CCc3nc4sc5c(c4c(=O)[nH]3)CCCCC5)CC2)cc1,i
C=Cc1ccc(CN2N=C(C(=O)N3CCOCC3)S(=O)(=O)c3ccc(C)cc32)cc1,i

Next section:
SMILES	GIRK2 act
COc1ccc(-c2noc(C3CC(=O)N(c4ccc(C)c(Cl)c4)C3)n2)c(OC)c1 (centres undefined)	i
O=C(NCCOc1ccc(-c2ccccn2)nn1)c1ccc2ncsc2c1	i
Cn1cc(CC(=O)NCC#CCN2CCc3ccccc3C2)c2ccccc21	i
Cc1ccc(N2CC(C(=O)NCc3cc(-c4ccco4)n(C)n3)CC2=O)cc1C (centres undefined)	i
COC(=O)c1ccc(NC(=O)c2c(S(=O)(=O)Nc3ccc(C)cc3)n[nH]c2C)cc1	i
CCCCCC(=O)OC1C=C2COC(=O)C2(O)C2(C)C(O)CCC(C)(C)C12 (centres undefined)	i
CC(C)C(=O)Nc1ccc2c(c1)CC(=O)N2	i
COCC(=O)Nc1cc(C(=O)N2CCCC2)cn(C)c1=O	i
Cc1ccc(C(O)CNC(=O)C(=O)NCCC2=CCCCC2)o1 (centres undefined)	i
Cc1nc2sc(C(c3ccc(Br)cc3)N3CCCC(C)C3)c(O)n2n1 (centres undefined)	i
CCN(CC)S(=O)(=O)c1ccc(C(=O)NCCc2cc3c(OC)ccc(OC)c3[nH]c2=O)cc1	i
COc1cc(CNC(=O)c2cccc(-n3ccc4ccccc43)c2)cc(OC)c1OC	i
O=C(NCc1ccc(F)c(Cl)c1)C1CCN(c2ncccc2-c2nc(-c3ccccc3)no2)CC1	i
COC(=O)Nc1nc2ccc(Oc3ccc(NC(=O)Nc4cccc(Cl)c4)cc3)cc2[nH]1	i
CC(C)NC(=O)Cc1ccc(-n2c(=O)c3ccccc3n(CC(=O)NC3CCCCC3)c2=O)cc1	i
Cc1ccc(C)c(NC(=O)c2ccc(S(=O)(=O)N3CCCCC3)cc2)c1	i
CCCCc1ccc(S(=O)(=O)c2cnc(SCC(=O)NC3CCCC3)[nH]c2=O)cc1	i
CC(C)OC(=O)COC(=O)c1cn(-c2cccc(F)c2)c(=O)c2ccccc12	i
CCCCNC(=O)c1ccc(-n2ccnc2SCC(=O)NCCc2ccccc2)cc1	i
Cc1cn2c3c(=O)n(Cc4c(Cl)cccc4Cl)c(=O)n(C)c3nc2n1CCCl	i
CS(=O)(=O)N1CCC(C(=O)NCc2cnn3ccccc23)CC1	i
COC(=O)c1ccc(NC(=O)C(=O)NCC2(O)CCOc3ccccc32)cc1 (centres undefined)	i
COc1nn(C)cc1C(=O)Nc1cc(C)nn1-c1nc2ccccc2s1	i
O=C(CSc1nnc2scc(-c3ccccc3)n12)NCc1ccco1	i
COc1cccc2cc(C(=O)NCCn3cnc(-c4ccccc4)cc3=O)oc12	i

(list continues)
SMILES	GIRK2 act
CC(CCc1ccccc1)NC(=O)Cn1cnc2c(-c3ccc(F)cc3)cn(C)c2c1=O (centres undefined)	i
COc1ccccc1OCC(=O)N1CCC(Cn2c(C(F)(F)F)nc3ccccc32)CC1	i
Cc1ccccc1-n1c(-c2cccc([N+](=O)[O-])c2)cnc1SCC(=O)NC(C)C	i
O=C(c1ccc2c(=O)nc3c(-c4ccc(Cl)cc4)n[nH]n3c2c1)N1CCN(c2ccccc2)CC1	i
O=C(CN1CC(c2nc(-c3ncccn3)no2)C1)N1CCN(c2ccc(Cl)cc2)CC1	i
O=C(Nc1cnc(N2CCN(c3ccccn3)CC2)nc1)C1CCCO1 (centres undefined)	i
COc1ccc(NC(=O)CSc2ncnc3nc(N4CCc5ccccc5C4)sc23)cc1OC	i
CC1CCN(S(=O)(=O)c2cccn(CC(=O)N3CCCCC3C)c2=O)CC1 (centres undefined)	i
Cc1cc2oc3c(c(=O)c2cc1C)C(c1cccc(Cl)c1)N(c1nccs1)C3=O (centres undefined)	i
NS(=O)(=O)c1ccc(N=Nc2c(O)[nH]c3ccc(-c4cnco4)cc23)cc1	i
CCc1[nH]nc(S(=O)(=O)Nc2ccc(Cl)cc2)c1C(=O)OC	i
Cc1ccc(-c2cnc(SCC(N)=O)n2-c2cccc(Cl)c2)cc1	i
CC(Oc1ccccc1)C(=O)Nc1c2c(nn1CC(=O)NCc1ccccc1)CSC2 (centres undefined)	i
COc1ccc(OCc2noc(CNC(=O)c3cc(C)on3)n2)cc1	i
CCOc1ccc(C)cc1S(=O)(=O)NCCN1CCN(c2ccc(F)cc2)CC1	i
COc1ccc(Cn2c(C3CC(=O)N(c4ccc(OC)cc4)C3)nc3ccccc32)cc1 (centres undefined)	i
Cc1cc(NC(=O)C2CCN(C(=O)CCn3ccc(=O)[nH]c3=O)CC2)no1	i
CCCNC(=O)C(=O)Nc1ccc(N2CCCS2(=O)=O)cc1	i
O=C(C1CC1c1cccs1)N1CCN(C(=O)C2(c3ccccc3)CCOCC2)CC1 (centres undefined)	i
Cc1cc(S(=O)(=O)N2CC(c3nc(-c4ncccn4)no3)C2)c(Cl)cc1Cl	i
COc1ccc(NS(=O)(=O)c2cc(C)c3[nH]c(=O)cc(C)c3c2)cc1	i
COc1cc(OC)cc(-c2noc(Cn3cnc4c(nnn4-c4cccc(Cl)c4)c3=O)n2)c1	i

Only part of the results is shown; the hit share may differ from the screen's.
